# Source: PubChem (National Center for Advancing Translational Sciences (NCATS))
# D2 PAM: potentiates the human D2 dopamine receptor allosterically; P14416; DiscoveRx D2 beta-arrestin cells, luminescence, 90 min; 100% = 57 uM dopamine signal; 360,000 compounds, 0.23% hits; potentiation, % (concentration not given with the values); active = potentiation of 50% or more; inconclusive = 30% to 50%; inactive = 30% or less;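 also: tested on top of an EC20 dose of dopamine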
#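 PathHunter beta-arrestin assay in DiscoveRx D2 cells. Compounds were added with an EC20 of dopamine (50 nM final) for 90 min at 37 deg C. Luminescence was read 1 h after detection reagent, with 57 uM dopamine as the EC100 control.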
# ClpP mod: qHTS Assay for Activators of ClpP | ATP-dependent Clp protease proteolytic subunit (Bacillus subtilis (strain 168)), P80244 | purified B. subtilis ClpP, FRET peptide cleavage, 20 min | Potency, µM (highest dose often 57.5 µM), for inactives: at the highest dose activity change, negative = active | 340,000 compounds, 1.9% hits | AID 651965, 2013; active = well fitted falling curve with a large enough effect; inconclusive = small, poorly fitted or top-dose-only effect; inactive = no such curve, though single readings can be large or run the other way; also: potency is read from the fitted curve at half-maximal effect; the source files actives as falling curves though it sought activators and does not explain the sign; nearly all actives have a fitted effect of over 65% in size; many hits overshoot -100%
# Target sequence (P80244 whole entry, looked up): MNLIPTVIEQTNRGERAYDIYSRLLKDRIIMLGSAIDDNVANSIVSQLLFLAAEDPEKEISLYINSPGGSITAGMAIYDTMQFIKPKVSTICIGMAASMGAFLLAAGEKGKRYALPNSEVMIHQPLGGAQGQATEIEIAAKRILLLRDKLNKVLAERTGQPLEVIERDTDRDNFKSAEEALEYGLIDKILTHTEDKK
#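 Purified B. subtilis ClpP, 10 microg/mL final in Tris/HCl pH8 with KCl, BSA, glycerol and Tween-20, cleaved an Abz/nitrotyrosine-quenched decapeptide. Fluorescence (ex 320, em 430) was read at 0 and 20 min at room temperature. Delta was normalized to 5.8 microM ADEP and DMSO/no-enzyme controls.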
# Sfp inh: blocks B. subtilis Sfp PPTase activity. Q9F4F7. Biochemical Sfp PPTase activity, qHTS. Potency, µM, for inactives: max response, negative = inhibition, hits mostly inhibitors. 310,000 compounds, 3.5% hits. AID 1490; active = well fitted inhibition curve with a large enough effect; inconclusive = small, poorly fitted or top-dose-only effect, or another doubt; inactive = no such curve, though single readings can be large or run the other way;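 also: the enzyme is Sfp with the accession as filed and its product quenches rhodamine fluorescence; potency is read from the fitted curve at half-maximal effect; 0% = enzyme reaction without inhibitor and -100% = no enzyme wells; top concentration of the series not given in the record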
#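 Buffer: 50 mM Hepes-Na pH 7.6, 10 mM MgCl2, 0.01% Nonidet P-40, 0.01% BSA. Enzyme 15 nM, pre-exposed to compound 15 min; substrates then added and fluorescence change tracked over 30 min.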
# Menin-MLL FL inh: inhibitors of human menin-MLL interaction, wild-type MLL peptide; Fluorescence polarization, fluorescein-MLL peptide displacement from menin; 290,000 tested, under 10 active; AID 1766; FP activity change, % at 61.4 µM; inconclusive = falling polarisation curve, or a change in total fluorescence; inactive = total fluorescence flat and polarisation flat or rising; no compound was filed as active; the % refers to the polarisation; negative = inhibition;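 also: % of control where 0% means no effect; inhibitors lower the polarisation; unlabelled MLL peptide was the positive control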
# gsp antag: antagonists of gsp mutant (McCune-Albright syndrome) | gsp-mutant cells, cAMP HTRF, 30 min; control for the full effect not named in the record | Potency, µM (highest dose often 76.9 µM), for the others: at the top dose activity change, negative = inhibition, actives largely listed as inhibitors | 340,000 compounds, 0.4% hits | AID 624288; active = falling curve of any shape with a large fitted effect; inconclusive = falling curve, mostly with a smaller effect; inactive = flat or rising curve; cell line not stated here;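 also: intracellular cAMP measured with PDE inhibitor Ro 20-1724 present during compound exposure; potency is read from the fitted curve at half-maximal effect; % is scaled to controls: 0 for no effect and ±100 for the full control effect; nearly all actives have a fitted effect of over 65% in size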
#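 Measurement of cellular cAMP by homogeneous time-resolved fluorescence following a 30 min compound exposure at 37C. The PDE inhibitor […] was present throughout; the assay buffer was DPBS with 0.05% BSA and 0.005% Tween 20.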
# TRPV1 PAM: enhances activation of the human vanilloid receptor TRPV1 | AID 540277 | Q8NER1 | potentiation, % at 8.33 µM | 320,000 compounds, 0.02% hits | TRPV1-expressing cells, Fluo-8 calcium influx, capsaicin EC20 potentiation; host cell line not named in the record; control for the full effect not named in the record; active means potentiation above 80%; inconclusive means 30% to 80%; inactive means below 30%; also: 0% is about no effect
# Target sequence (Q8NER1 whole entry, looked up): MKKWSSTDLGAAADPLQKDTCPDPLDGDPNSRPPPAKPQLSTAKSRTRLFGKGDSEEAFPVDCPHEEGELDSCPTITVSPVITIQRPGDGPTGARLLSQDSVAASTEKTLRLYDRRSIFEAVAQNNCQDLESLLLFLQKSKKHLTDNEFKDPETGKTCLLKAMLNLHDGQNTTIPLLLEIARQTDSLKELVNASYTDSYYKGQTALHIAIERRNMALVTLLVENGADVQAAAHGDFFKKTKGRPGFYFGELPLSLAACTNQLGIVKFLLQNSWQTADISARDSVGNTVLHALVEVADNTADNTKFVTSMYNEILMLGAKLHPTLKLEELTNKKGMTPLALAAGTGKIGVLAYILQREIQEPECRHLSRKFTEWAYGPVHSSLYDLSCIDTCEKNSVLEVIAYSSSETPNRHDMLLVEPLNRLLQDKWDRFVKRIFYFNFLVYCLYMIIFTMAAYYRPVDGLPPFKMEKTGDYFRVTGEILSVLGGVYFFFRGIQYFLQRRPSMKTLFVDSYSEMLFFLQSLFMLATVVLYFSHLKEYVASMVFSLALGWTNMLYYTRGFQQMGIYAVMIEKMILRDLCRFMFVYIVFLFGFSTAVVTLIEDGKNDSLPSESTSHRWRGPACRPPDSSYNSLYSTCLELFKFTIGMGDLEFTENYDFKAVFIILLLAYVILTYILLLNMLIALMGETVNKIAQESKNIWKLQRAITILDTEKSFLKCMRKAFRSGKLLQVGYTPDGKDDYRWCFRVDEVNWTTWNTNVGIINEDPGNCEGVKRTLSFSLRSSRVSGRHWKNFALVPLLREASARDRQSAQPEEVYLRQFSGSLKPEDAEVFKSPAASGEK
#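 Fluo-8 calcium influx in TRPV1-expressing cells, kinetic read (ex 480/em 520 nm). Compound added and read 3 min for agonist activity, followed by capsaicin at EC20 final and 2 min further read for enhancement.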
# gsp ag: gsp mutant agonism; gsp mutant cells, cAMP HTRF, 30 min; control for the full effect not named in the record; Potency, µM (titrated, usually from 76.9 µM), for inactives: at the top dose activation (cAMP increase), hits mostly activators; 340,000 compounds, 0.13% hits; AID 624287; active = well fitted activation curve with a large enough effect; inconclusive = small, poorly fitted or top-dose-only effect, or another doubt; inactive = no such curve, though single readings can be large or run the other way; cell line not stated here;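 also: phosphodiesterase inhibitor Ro 20-1724 added with compounds to block cAMP breakdown; potency is read from the fitted curve at half-maximal effect; nearly all actives have a fitted effect of over 60% in size; about a fifth of the inactives were tested at one dose only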
#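 Cells stably selected in G418 were plated at 2000/well, grown 16-24 hr, then given compounds in DMSO with the PDE inhibitor […] (300 uM solution added) for 30 min at 37C; cAMP was read by HTRF.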
# The depositor's hits bear a star; i = inactive; ? = inconclusive; nt = no result given; [ ] = another dose, or the depositor's remark.
SMILES,D2 PAM,ClpP mod,Sfp inh,Menin-MLL FL inh,gsp antag,TRPV1 PAM,gsp ag
O=C(COc1ccccc1[N+](=O)[O-])Nc1cccc(C(=O)Nc2ccccc2C(=O)O)c1,3.5,-0.8%,0.6%,nt,?,2.4,-51.4%[inhibitor]
COc1ccc(C(=O)OCC(=O)Nc2nc3c(F)c(F)c(F)cc3s2)cc1OC,-7.9,-0.2%,15.2%,-2.4,7.6%,2.9,5.2%[15.4 µM]
C[C@H](CO)N1C[C@H](C)[C@@H](CN(C)S(C)(=O)=O)Oc2ccc(NC(=O)Nc3ccc(C(F)(F)F)cc3)cc2C1=O,6.8,1.7%,nt,nt,7.9%,nt,12.5%
CC(C)COP(=O)(OCC(C)C)C(Nc1ccccc1)c1ccc(F)cc1 (stereo unspecified),-16.3,-1.0%,5.1%,2.9,-7.6%,-14.8,-17.3%
O=C(c1ccc(CNc2c(N3CCCC3)c(=O)c2=O)cc1)N1CCc2ccccc2C1,1.1,2.9%,10.9%,-1.6,-5.4%,17.0,7.0%
CCCCn1c(N)c(N2CCOCC2)c(=O)n(CC(=O)NCCc2ccccc2)c1=O,-13.6,nt,20.2%,-0.3,10.1%,1.8,3.3%[15.4 µM]
COc1ccc(Oc2ccccc2/C=C/C(=O)O)cc1,3.3,-4.1%,16.7%,-6.3,-12.5%,6.6,-7.0%
NC(=O)COC(=O)c1ccc2c(c1)C(=O)N(Cc1ccco1)C2=O,0.4,nt,-2.7%,4.5,2.1%,8.5,?
CCN(Cc1ccccc1)C1CCN(Cc2ccc(SC)cc2)CC1,-13.4,nt,31.6µM*,-3.3,6.1%,-8.9,0.0%[15.4 µM]
Cn1c(NC(=O)c2ccc(F)cc2)nc2ccccc21,-2.1,-14.1%,14.0%,-1.8,-3.5%,-10.2,-25.7%
CCOC(=O)CC(=O)CSc1nc(N)c(C#N)c(-c2ccc(F)cc2)c1C#N,-7.0,-17.8%,-9.1%,16.0,-12.3%,-5.7,-4.2%
COc1ccccc1OCCNC(=O)C(c1ccccc1)c1ccccc1,-8.5,-1.7%,-0.6%,2.2,-4.2%,?,17.7%
Cn1ncc2c(N3CCC(Cc4ccccc4)CC3)ncnc21,-7.9,nt,-11.5%,0.9,-4.2%,-15.6,-4.7%[15.4 µM]
O=C(NC1(C(F)(F)F)N=C(c2ccccc2)NC1=O)c1ccccc1 (stereo unspecified),-11.0,-1.7%,5.9%,0.8,3.1%,5.1,33.8%
Cc1ccc2[nH]c(=O)c(CN(CC3COCCO3)C(=O)Nc3ccccc3C)cc2c1 (stereo unspecified),-4.9,-13.8%,14.8%,-1.4,-7.0%,-2.1,17.0%
COc1ccc(NC(=O)Nc2ccc(OCC(=O)N3CCOCC3)cc2)cc1OC,-9.4,-1.3%,14.3%,0.0,6.2%,-2.2,1.8%
NC(=O)CC(NC(=O)Cc1cccc2ccccc12)c1ccc(NCc2ccccn2)c([N+](=O)[O-])c1 (stereo unspecified),-4.2,-1.0%,-13.1%,-5.4,0.1%,-12.9,nt
Cc1nc(CC(=O)NNS(=O)(=O)c2ccc(F)c(Cl)c2)cs1,-13.9,-0.8%,18.4%,3.0,-3.8%,-0.2,-18.0%
CC1Oc2ccccc2N(Cc2ccccc2F)C1=O (stereo unspecified),nt,nt,4.3%,2.3,nt,0.6,nt
Cc1ccc(NC(=O)c2sc(N)nc2-c2ccc([N+](=O)[O-])cc2)c(C)c1,-3.4,nt,3.0%,0.2,-8.7%,nt,11.4%[15.4 µM]
COC(=O)c1cc(C(=O)Nc2nnc(C3CC3)s2)cc([N+](=O)[O-])c1,16.4,-1.6%,9.4%,-6.8,-28.9%,14.6,-9.3%[15.4 µM]
COc1cc(O)oc1C=Nc1ccc(C(=O)O)cc1,-8.2,nt,4.9%,-1.8,-11.2%,?,19.2%[15.4 µM]
CCS(=O)(=O)CCSc1nc2c(cc1C#N)CCCC2,-0.3,0.5%,9.6%,3.7,-1.0%,10.1,-54.3%[inhibitor]
O=C(c1ccc2c(=O)n(C3CCCC3)c(=S)[nH]c2c1)N1CCN(C2CCCCC2)CC1,-24.1,0.7%,-9.1%,-0.2,12.1%,11.5,-12.1%
Cc1ccccc1-c1nc(CS(=O)(=O)CC(=O)N2CCc3ccccc3C2)c(C)o1,-4.1,-2.3%,-16.4%,4.8,-9.7%,20.0,-101.8%[inhibitor]
Nc1c(-c2ccccc2)c(CN2CCOCC2)nn1-c1ccc(F)cc1,-22.7,-3.2%,18.4%,0.5,1.1%,0.9,12.5%
COc1ccccc1N1CCN(S(=O)(=O)c2cc(Br)cnc2N)CC1,1.1,nt,-2.7%,nt,0.1%,7.6,-7.2%
O=[N+]([O-])c1cccc(-c2nc(-c3ccncc3)no2)c1,-11.6,-2.9%,1.2%,2.7,7.8%,-16.0,29.1%
Cc1ccc(NC(=O)Cn2nc([N+](=O)[O-])c(Br)c2C)cc1C,-17.6,-0.9%,6.6%,2.7,4.7%,3.4,-13.5%
CN(C)CCNC(=O)COc1cccc(Cl)c1,-9.8,-1.6%,-10.5%,-4.2,12.5%,-11.9,-1.7%
COc1ccccc1OCc1ccc(C(=O)N2CCN(C)CC2)o1,-24.1,-1.5%,6.7%,2.8,-2.7%,-32.9,-1.0%
C[C@@H]1CCCCO[C@H](CN(C)S(=O)(=O)c2ccccc2)[C@@H](C)CN([C@H](C)CO)C(=O)c2cc(NC(=O)Cc3ccccc3)ccc2O1,-5.8,-0.5%,nt,nt,nt,nt,-86.2%[inhibitor]
Cc1c(C(=O)O)sc2nc3n(c(=O)c12)CCC3,0.7,nt,-4.4%,-3.3,12.4%,-0.8,-3.3%[15.4 µM]
COc1ccc(CN2CCCC(C(=O)c3ccc(SC)cc3)C2)cc1Cn1cccn1 (stereo unspecified),-3.1,nt,-1.7%,-5.6,-15.8%,-2.9,0.5%[15.4 µM]
COC(=O)[C@@H](NC(=O)NCc1cccs1)C(C)C,-5.0,0.3%,16.3%,-1.2,2.7%,0.9,-61.5%[inhibitor]
CC(C)c1ccc(C(C(=O)NC2CCCCC2)N(C(=O)c2csnn2)C2CC2)cc1 (stereo unspecified),-5.7,nt,1.1%,-9.1,-12.5%,-13.9,-0.1%
CC(=O)Nc1c(C(=O)N2CCCCCC2)cnn1-c1ccccc1,-8.4,-0.9%,21.1%,2.9,-7.6%,2.6,4.1%
CC(=O)Nc1ccc(CN2CCCC(CCC(=O)NCc3ccccc3F)C2)cc1 (stereo unspecified),-4.4,-0.1%,23.0%,-0.6,5.2%,-7.9,-3.8%
COc1ccc(F)cc1S(=O)(=O)N1CCCN(S(=O)(=O)c2cc(F)ccc2OC)CC1,2.7,0.2%,16.2%,-0.7,?,-2.5,0.0%
O=C(Nc1cccc(NC(=O)c2ccc(Br)o2)c1)c1ccccc1,-6.2,0.3%,-6.3%,-2.3,-19.0%,-15.6,-16.1%[15.4 µM]
Cc1cccc(N=Cc2c(O)cc(C)oc2=O)c1,-35.1,nt,12.0%,?,nt,-7.2,8.7%[15.4 µM]
COc1ccc(NC(=O)N(C)C[C@H]2Oc3ccc(NC(=O)Nc4ccc5c(c4)OCO5)cc3C(=O)N([C@H](C)CO)C[C@@H]2C)cc1,-6.4,1.3%,nt,nt,-12.8%,nt,-22.6%
CC(C)(C)c1ccc(Oc2ccc(NC(=O)CCCC(=O)O)cn2)cc1,-10.2,nt,20.2%,0.2,10.6%,3.7,4.9%[15.4 µM]
Cc1cccn2cc(CCNC(=O)c3ccco3)nc12,-8.4,-6.8%,23.8%,4.4,7.3%,21.4,9.2%
CCCCC[C@]12Cc3ccccc3C(O1)c1c(cc(C)oc1=O)O2,nt,nt,5.2%,-1.8[11.7 µM],nt,i,nt
O=C(CSc1nnc(-c2ccncc2)o1)Nc1cccc(F)c1,-1.9,nt,nt,nt,8.3%,2.9,-17.8%[15.4 µM]
CC[C@]1(c2cccc(C)c2)C(=O)N(C(=O)OC)N1C(=O)OC,-8.2,1.5%,-19.5%,-2.7,7.8%,16.2,nt
Cc1ccc(C(=O)COC(=O)CNC(=O)C(c2ccccc2)c2ccccc2)cc1[N+](=O)[O-],-37.8,-0.1%,14.1%,4.2,-21.7%,10.7,-13.9%
NS(=O)(=O)c1ccc(NC(=O)/C=C/c2cn(-c3ccccc3)nc2-c2cccc(Cl)c2)cc1,-1.0,0.6%,-13.0%,?,-18.7%,?,-1.2%[15.4 µM]
Cc1ccc(S(=O)(=O)NNC(=O)c2sc(=S)n(C)c2C)cc1,-30.8,-9.5%,-0.1%,-1.5,-17.6%,-5.7,-13.9%
CSCC(O)Cn1ncc2ccccc2c1=O (stereo unspecified),-4.4,0.3%,-3.5%,0.8,12.1%,17.4,-21.1%
c1ccc(Oc2ncnc3oc(-c4ccccc4)cc23)cc1,-18.5,-1.6%,13.9%,1.7,4.8%,-13.5,-4.8%
Cc1cccc(OCCCCNCc2ccccc2)c1,-14.6,nt,-22.9%,-4.2,17.4%,2.1,6.2%[15.4 µM]
Cc1nc2cc(S(=O)(=O)N3CCC(C(=O)O)CC3)ccc2n1C1CCCC1,29.3,-1.0%,-3.8%,-2.7,-4.5%,10.8,-29.4%
C=CCNC(=O)/C(C#N)=C/c1c(N(Cc2ccccc2)Cc2ccccc2)nc2ccccn2c1=O,-16.5,-16.1%,-8.8%,10.2,-14.9%,-5.7,5.7%
O=C1CCCc2c1nc(-c1ccco1)n2O,1.8,?,8.0%,-2.8,7.9%,-3.0,?
Cc1ccc(S(=O)(=O)N2CCCOC2CNC(=O)C(=O)NCc2ccccc2C)cc1 (stereo unspecified),-8.7,0.6%,15.1%,nt,-10.9%,-6.8,-2.3%
CC(C)Oc1ccc2nnnn2n1,24.2,-0.7%,20.6%,3.9,-4.5%,6.3,-13.5%
